PV pol inh = inhibitors of poliovirus RNA polymerase binding and polymerization; P03300; poliovirus polymerase elongation, fluorescence polarization; stronger effect = lower value; % elongation, % (compound at 16.7 µg/mL); actives 0.66% (n = 150,000); in the data active = % elongation below about 90%; note: some results filed as inactive read as strong as hits
PV pol inh intensity = second read-out of PV pol inh, no call of its own (marks repeat the call); % elongation; measured here: total intensity read-out; formula for this scale not given here;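 total fluorescence in place of polarization; lower means less elongation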
Active calls of the source: *.

item | smiles | PV pol inh | PV pol inh intensity
1 | CN(C)S(=O)(=O)n1cc(/C=C(\NC(=O)c2ccccc2)C(=O)NCCCn2ccnc2)c2ccccc21 | 116.0 | 121.0
2 | Cc1cccc(Cc2c(C)nc3c(-c4ccccc4)c(C)[nH]n3c2=O)c1 | 103.0 | 109.0
3 | Cc1c(Cl)cccc1NC(=O)Cn1cc(C(=O)C2CCCCC2)c2ccccc21 | 109.0 | 112.0
4 | Cc1ccc(C)c(Nc2nc3nonc3nc2Nc2cccc(C)c2C)c1 | 102.0 | 108.0
5 | CCOC(=O)c1sc(NC(=O)c2c(-c3ccccc3)c(-c3ccccc3)nn(C)c2=O)nc1C | 107.0 | 112.0
6 | Cc1nc2c3ccccc3nc(NNC(=O)CCC(=O)N3CCN(c4ccccc4F)CC3)n2n1 | 92.0 | 94.0
7 | CC(C)OCc1cc(CN2CCN(c3ccccc3)CC2)c(O)c2ncccc12 | 124.0 | 136.0
8 | CCOC(=O)c1ccc(NC(=O)c2cc(=O)c3ccc(C)c(C)c3o2)cc1 | 108.0 | 115.0
9 | CCOc1ccc2nc(N3CCC(C(=O)Nc4ccccc4CC)CC3)sc2c1 | 107.0 | 114.0

Whole records, quoted from the list.
Cc1ccc(C)c(Nc2nc3nonc3nc2Nc2cccc(C)c2C)c1 across the screens: PV pol inh = 102.0; PV pol inh intensity = 108.0
CN(C)S(=O)(=O)n1cc(/C=C(\NC(=O)c2ccccc2)C(=O)NCCCn2ccnc2)c2ccccc21 across the screens: PV pol inh = 116.0; PV pol inh intensity = 121.0

High-throughput results (PubChem BioAssay)

A portion of the library; count on the stated rates, not on these rows.
